Screens: PubChem, several laboratories
UUG fidelity = alters start codon recognition fidelity in yeast; 350,000 tested, 0.13% active; S. cerevisiae UUG-firefly luciferase reporter, luminescence/redox ratio; activity score, % at 18.7 µM; AID 602363;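 active = replicate mean at a twofold rise or more, about +100% in these data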;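 note: firefly luciferase made from a UUG start codon reports start codon fidelity; reporter light over untreated wells divided by growth signal over untreated wells; some hits fall short of that in this replicate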
PABP FP inh = blocks human PABP binding to poly(A) RNA; inhibition, % at 35 µM; fluorescence polarization; 290,000 tested, 1% active; AID 2014;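 active = 50% or more with normal probe brightness, or confirmed in later tests; inconclusive = above 50% with abnormal brightness, or retests that disagree; inactive = below 50% or failed in later tests; about a fifth of its hits are not listed in these tables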;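 note: calls also rest on retests at 20 µM and on dose response follow-up; controls were probe without protein and protein plus probe with vehicle; some compounds called inactive have numbers as strong as hits; many hits fall short of the cut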
Target sequence (P11940 whole entry, looked up): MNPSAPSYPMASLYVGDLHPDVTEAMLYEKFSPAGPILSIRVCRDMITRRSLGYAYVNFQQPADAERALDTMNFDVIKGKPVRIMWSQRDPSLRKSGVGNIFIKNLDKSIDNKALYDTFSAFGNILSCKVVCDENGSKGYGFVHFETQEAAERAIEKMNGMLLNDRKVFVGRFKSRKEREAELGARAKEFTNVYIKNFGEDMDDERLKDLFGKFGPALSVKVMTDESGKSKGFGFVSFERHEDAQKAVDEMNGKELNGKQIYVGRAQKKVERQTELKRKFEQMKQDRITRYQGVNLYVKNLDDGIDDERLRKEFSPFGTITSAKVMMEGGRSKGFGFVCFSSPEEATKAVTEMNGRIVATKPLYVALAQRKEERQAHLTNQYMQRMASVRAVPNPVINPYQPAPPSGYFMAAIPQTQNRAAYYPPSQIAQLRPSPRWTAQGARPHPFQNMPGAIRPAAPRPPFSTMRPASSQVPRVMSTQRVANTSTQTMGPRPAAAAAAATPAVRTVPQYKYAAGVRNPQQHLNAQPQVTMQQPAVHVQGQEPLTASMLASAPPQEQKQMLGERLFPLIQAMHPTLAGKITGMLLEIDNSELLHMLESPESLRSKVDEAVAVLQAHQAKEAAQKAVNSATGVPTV
eIF4H FP inh = inhibitors of RNA binding by human eIF4H. Q15056. eIF4H fluorescence polarization binding assay. inhibition, % at 35 µM. 290,000 tested, 0.94% active. AID 2012;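 active = 50% or more with normal probe brightness, or confirmed in later tests; inconclusive = above 50% with abnormal brightness, or retests that disagree; inactive = below 50% or failed in later tests; about a fifth of its hits are not listed in these tables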;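 note: calls also rest on retests at 20 µM and on dose response follow-up; 0% = protein and probe with vehicle and 100% = probe without protein; strong numbers were not always called active; many hits fall short of the cut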
HIV Env fusion = HIV envelope-mediated fusion inhibition; 360,000 tested, 1.1% active; HeLa-JRFL Env/CEM21 cell fusion, luciferase; inhibition, % at 12.3 µM;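 active = mean replicate inhibition score of at least 50 and every replicate individually at or above 50; inconclusive = only one of the two criteria met; inactive = mean below 50 and not all replicates reaching 50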;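 note: 0% = plate neutral controls and 100% = maraviroc near 300 nM; one replicate is shown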
Rce1 inhib = blocks yeast Ras-converting enzyme. calls only. 290,000 tested, 0.27% active. Q03530. yeast membranes, quenched prenylated peptide cleavage fluorescence;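 active = fall in fluorescence gain of 50% or more versus controls, with final raw signal at or below 3038400; inconclusive = same 50% fall but final raw signal above 3038400; inactive = fall in fluorescence gain under 50%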;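 note: plate controls were neutral control wells for no effect and wells lacking membranes for full effect; tested at 10 µM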
Target sequence (Q03530 whole entry, looked up): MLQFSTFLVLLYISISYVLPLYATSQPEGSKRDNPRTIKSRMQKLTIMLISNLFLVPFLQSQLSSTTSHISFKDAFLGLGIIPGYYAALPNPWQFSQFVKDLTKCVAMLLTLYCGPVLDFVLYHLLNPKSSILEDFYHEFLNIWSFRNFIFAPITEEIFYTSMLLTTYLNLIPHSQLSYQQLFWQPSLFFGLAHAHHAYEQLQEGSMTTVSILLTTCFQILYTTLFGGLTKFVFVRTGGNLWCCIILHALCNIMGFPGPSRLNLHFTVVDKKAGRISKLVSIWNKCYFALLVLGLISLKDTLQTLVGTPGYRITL
CSC inhib = cancer stem cell inhibition; cancer stem cell-like cells viability, luminescence; inhibition, % at 7.5 µM; 300,000 tested, 1.1% active; AID 2717;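 active = mean at 75% or more and at least half the replicates too; inconclusive = mean and replicates disagree; tested in HMLE shEcad cells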;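 note: 0% = median of negative and 100% = median of positive control wells; the first replicate is given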
MT1-MMP act inh = MT1-MMP (human) activation inhibition; 360,000 tested, 0.061% active; HT1080 RFP-PRO-GFP cells, GFP/RFP ratio fluorescence, overnight; percent of plate control window, DMSO zero; GFP/RFP ratio change, % at 20 µM; P50281;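 active = GFP/RFP ratio change of at least 30% with cell ATP level not reduced by more than half and red fluorescence within 50% of control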; note: strong numbers were not always called active
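Assay system: RFP-PRO-GFP reporter HT1080 cells; read-out basis: GFP/RFP fluorescence ratio; benchmarks: DMSO wells and RFP-L50D-GFP cells; doses: 20 µM single dose, 1% DMSO; schedule: overnight cell settling, then overnight compound exposure, 37 °C, 5% CO2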
eIF4H FP inh retest = second read-out of eIF4H FP inh, no call of its own (marks repeat the call); inhibition, %; compound at 20 µM; confirmation average;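 mean of two retest wells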
PABP FP inh retest = recorded beside PABP FP inh, whose call it bears; inhibition, %; compound at 20 µM; confirmation repeats;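 mean of two retest wells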
MT1-MMP act inh RFP = further read-out of MT1-MMP act inh, marked with its call; RFP signal change, %; measured here: RFP expression control read;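 0 = vehicle wells; hits needed this value within 50% of zero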
Numbers without * were called inactive; i = inactive; u = inconclusive; x = not tested or not shown; ! = not active in a repeat. Some of the compounds tested. The share of hits here may be higher or lower than overall.

SMILES	UUG fidelity	PABP FP inh	eIF4H FP inh	HIV Env fusion	Rce1 inhib	CSC inhib	MT1-MMP act inh	MT1-MMP act inh RFP	others
O=C(NC1CCCCC1)[C@@H]1CC=C[C@@H]2CCN(Cc3ccccc3)C(=O)[C@@H]21	-16	x	x	-5	i	-6	0	-1
CC1(C)C(=O)C=C[C@]2(C)[C@H]3CC[C@@]4(C)[C@H](c5ccoc5)OC(=O)[C@H]5O[C@]54[C@]3(C)[C@H](O)C[C@@H]12	x	7	4	x	i	-4	x	x
Cn1c(O)c(/C=C2\N=c3ccccc3=C2CCNC(=S)NC2CC2)c(=O)n(C)c1=O	x	5	-1	-23	i	x	-3	1
COCCNC(=O)CN1C(=O)C(C)N=C(c2ccccc2)c2cc(Cl)ccc21 (centres undefined)	-1	0	-8	-2	i	-5	-3	1
COc1cccc(CN2CCN(C(=O)Cc3ccccc3OC)CC2)c1	-19	-11	0	-17	i	3	2	0
O=C1NC(=O)N(c2ccccc2F)C(=O)/C1=C/c1cn(CC(=O)N2CCOCC2)c2ccccc12	x	u	u	-65	i	33	x	x
CCOc1cc(CNCCc2cccc(F)c2)ccc1OC	-8	23	39	5	i	4	1	6
O=C1NC(=O)C(CCc2ccncc2)(Cc2ccc(OCc3ccccc3)cc2)C(=O)N1	x	-7	-9	-10	i	-8	6	1
C(#CCN1CCOCC1)COCC#Cc1ccccc1	15	10	-4	-15	i	-4	-4	1
C=C(CO)CC1CC(O)[C@]2(C)OC3CC4OC5C[C@]6(C)O[C@]7(C)CCC8OC9C[C@]%10(C)OC%11C(C)=CC(=O)OC%11CC%10OC9C[C@@H](C)C8OC7CC6O[C@]5(C)C/C=C\C4OC3CC2O1 (some centres undefined)	27	-4	-5	38	i	-11	9	-10
CC(=O)c1ccc(-c2ccccc2)cc1	1	-13	-9	-43	i	-25	1	4
Cc1cc(C)cc(NC(=O)CCNC(=O)N2C[C@H]3C[C@@H](C2)c2cccc(=O)n2C3)c1	-12	-2	-6	x	x	-5	6	4
O=C(CCl)Nc1nccs1	x	8	-9	40	i	7	-2	-6
CCOC(=O)c1sc(/N=C/c2c(O)n(-c3ccccc3)c(=O)[nH]c2=O)c(C#N)c1C	-12	64	39	i	i	-1	-11	-4	eIF4H FP inh retest=-1;PABP FP inh retest=8
O=C(c1cc2c(s1)CCCCCC2)N1CCC2(CC1)OCCO2	-11	-2	8	-28	i	-20	-1	0
O=C(C[n+]1ccn(CCCNP2(=O)C=C(c3ccccc3)OC(c3ccccc3)=C2)c1)c1ccccc1	x	2	3	-6	i	-6	-3	2
CC12C=CC(=O)C=C1CC(O)C1C2CCC2(C)C1CCC2(C)O (centres undefined)	-18	x	x	-19	x	x	-2	0
Cc1ccccc1-n1c(C)nc2ccsc2c1=O	-15	x	x	-2	i	1	3	6
CCOC(=O)C1(CCc2ccccc2)CCN(Cc2cccc3cnccc23)CC1	9	-10	8	11	i	-13	-9	-23
Cc1ccc2c(c1)C1CN(C)CCC1N2C(=O)Nc1cccc(C(F)(F)F)c1 (centres undefined)	-1	-2	-4	-14	i	-6	-12	-10
CCc1ccc(CN2CCN(C(=O)Cc3ccccc3)CC2)cc1	x	16	17	6	i	12	9	2
O=C(Nc1cccc2ccccc12)N1CCC2(CC1)OCCO2	x	-2	8	3	i	-4	-4	-2
O=C1NC(=O)N(Cc2ccccc2)C(=O)/C1=C\N1CCCc2ccccc21	x	-12	u	-34	i	-19	-23	16
O=C(Cc1ccccc1)N1CCN(C2CCCCCC2)CC1	x	11	-9	9	i	-2	2	3
CCCN(CC1CC1)CC(O)c1ccccc1 (centres undefined)	-15	12	9	-8	i	1	2	3
Later entries:
SMILES	UUG fidelity	PABP FP inh	eIF4H FP inh	HIV Env fusion	Rce1 inhib	CSC inhib	MT1-MMP act inh	MT1-MMP act inh RFP	others
CCCNc1oc(-c2cccc3ccccc23)nc1C#N	-14	-1	2	-58	x	3	4	1
O=C(O)Cn1cc(C(=O)c2ccccc2)c2ccccc21	-7	3	-12	-13	i	-9	0	4
O=P(Nc1ccccc1)(Nc1ccccc1)Oc1cccc(Cl)c1	4	-9	-4	28	i	3	5	-2
Cc1cccc(CN2CCN(C(=O)Cc3ccccc3)CC2)c1	-10	1	20	10	i	-14	-4	-3
O=C(Nc1ccc(C(F)(F)F)cc1)c1cccn(Cc2ccc3c(c2)OC(F)(F)O3)c1=O	-12	-3	-10	106*	i	90*	6	-19
CCCCn1nnnc1C(c1cccc2ccccc12)N1CCC2(CC1)C(=O)NCN2c1ccccc1 (centres undefined)	-4	x	x	-85	x	x	6	-4
COc1ccc(-n2c(/C=C/c3ccc(O)c(OC)c3)nc3ccccc3c2=O)cc1	-5	2	-12	13	i	15	-56	-3
CC(NC1CCCCC1)C(O)C12CC3CC(CC(C3)C1)C2 (centres undefined)	-12	-9	2	u	i	46	4	5
O=c1[nH]c(=O)n(Cc2ccco2)c(O)c1/C=N/N1CCCCCC1	-14	2	3	x	i	-1	1	0
CN1CCC(N(C)Cc2cccnc2)CC1	11	27	-10	x	i	-11	1	4
Cc1cc(C)n2nc(C)[n+](C)c2n1	-15	9	1	x	i	-2	10	2
Cn1c(O)c(/C=N/N2CCOCC2)c(=O)n(-c2ccccc2)c1=S	-10	-6	-8	-1	i	10	-7	-1
CN(C)CC1CSCCC1(O)c1ccccc1Cl (centres undefined)	-8	-12	-13	-40	i	-3	-4	2
CCCC1(CCO)C(=O)NC(=S)NC1=O	4	x	x	9	x	x	5	6
CN1CCN(CC#CCOc2ccc(Cl)cc2)CC1	-26	4	22	7	i	8	0	2
COc1ccc(CN2CCN(c3ccccc3F)CC2)cc1O	-13	0	11	-15	i	4	-2	1
CCN(CC)CCCN=Cc1c(O)n(CCc2ccc(F)cc2)c(=O)[nH]c1=O	-17	5	0	x	i	12	2	4
COc1ccc(/C=C/C(=O)NC(=S)N2C[C@H]3C[C@H](C2)c2cccc(=O)n2C3)cc1OC	-27	6	15	x	i	-7	2	4
C=CCn1c(O)c(C(C)=Nc2ccc(C(=O)OCC)cc2)c(=O)[nH]c1=O	-13	2	-12	x	i	-2	-3	2
Cc1ccc(N2C(=O)NC(=O)/C(=C/C=C/c3ccco3)C2=O)cc1	x	-1	u	i	i	79*	-29	19
COc1cc2c(cc1O)CC1c3c(cc(O)c(OC)c3-2)CCN1C (centres undefined)	-8	20*!	81*!	x	i	-15	-2	-3	eIF4H FP inh retest=88*!;PABP FP inh retest=62*!
CN1CCN(/N=C/c2c(O)n(CCC3=CCCCC3)c(=S)[nH]c2=O)CC1	x	-8	-5	-2	i	2	-6	0
Cc1cc(=O)oc2c(C)c(OCC(=O)N3CCN(Cc4ccccc4)CC3)ccc12	-9	-8	4	-11	i	-14	-1	2
O=C(Nc1ccc(F)cc1)c1c(O)c2c(n(Cc3ccccc3)c1=O)CCCC2	x	14	4	-10	i	14	2	-3
Cn1cc(C(=O)Cc2ccccc2)c2ccccc21	-10	3	-4	15	i	0	3	3

Brought forward from above: 3 compounds, then new ones.
SMILES	UUG fidelity	PABP FP inh	eIF4H FP inh	HIV Env fusion	Rce1 inhib	CSC inhib	MT1-MMP act inh	MT1-MMP act inh RFP	others
Cc1cc(=O)oc2c(C)c(OCC(=O)N3CCN(Cc4ccccc4)CC3)ccc12	-9	-8	4	-11	i	-14	-1	2
O=C(Nc1ccc(F)cc1)c1c(O)c2c(n(Cc3ccccc3)c1=O)CCCC2	x	14	4	-10	i	14	2	-3
Cn1cc(C(=O)Cc2ccccc2)c2ccccc21	-10	3	-4	15	i	0	3	3
CC(C)[C@H]1C(=O)N2CCC[C@H]2[C@]2(O)O[C@](NC(=O)[C@@H]3C=C4c5cccc6[nH]cc(c56)C[C@H]4N(C)C3)(C(C)C)C(=O)N12	20	0	u	x	i	-4	-27	16
COc1cc(OC)c(OC)cc1CN1CCN(C(=O)COc2ccc3ccccc3c2)CC1	0	18	17	13	i	x	0	-5
Cc1ccc(N2C(=O)NC(=O)C3(Cc4ccccc4N4CCN(c5ccccc5)CC43)C2=O)cc1 (centres undefined)	-10	58	48	-87	i	-13	-23	6	eIF4H FP inh retest=23;PABP FP inh retest=18
Clc1cccc(CNCCc2c[nH]c3ccccc23)c1	-14	3	5	15	i	12	-1	-4
O=c1[nH]c(=O)n(-c2ccccc2F)c(O)c1C=NCCC1=CCCCC1	-10	3	12	5	i	-15	-2	0
Clc1ccc(N2CCNCC2)nn1	x	-11	8	-6	i	-19	1	2
O=c1[nH]c(O)c(C=NC2CCCCC2)c(=O)[nH]1	x	-12	-6	5	i	-10	-3	3
CC(C)(C)C1(CCO)C(=O)NC(=S)NC1=O	-21	x	x	3	x	x	2	4
O=c1[nH]c(=O)n(CCC2=CCCCC2)c(O)c1C=NCCCn1ccnc1	-10	-7	-2	x	i	-7	1	-5

By substructure: the entries above with an aryl methoxy group (seven)
SMILES	UUG fidelity	PABP FP inh	eIF4H FP inh	HIV Env fusion	Rce1 inhib	CSC inhib	MT1-MMP act inh	MT1-MMP act inh RFP	others
COc1cccc(CN2CCN(C(=O)Cc3ccccc3OC)CC2)c1	-19	-11	0	-17	i	3	2	0
CCOc1cc(CNCCc2cccc(F)c2)ccc1OC	-8	23	39	5	i	4	1	6
COc1ccc(-n2c(/C=C/c3ccc(O)c(OC)c3)nc3ccccc3c2=O)cc1	-5	2	-12	13	i	15	-56	-3
COc1ccc(CN2CCN(c3ccccc3F)CC2)cc1O	-13	0	11	-15	i	4	-2	1
COc1ccc(/C=C/C(=O)NC(=S)N2C[C@H]3C[C@H](C2)c2cccc(=O)n2C3)cc1OC	-27	6	15	x	i	-7	2	4
COc1cc2c(cc1O)CC1c3c(cc(O)c(OC)c3-2)CCN1C (centres undefined)	-8	20*!	81*!	x	i	-15	-2	-3	eIF4H FP inh retest=88*!;PABP FP inh retest=62*!
COc1cc(OC)c(OC)cc1CN1CCN(C(=O)COc2ccc3ccccc3c2)CC1	0	18	17	13	i	x	0	-5
